Mtb bLac sens – beta-lactam sensitization of Mtb H37Rv. M. tuberculosis H37Rv growth with meropenem, percent inhibition; hits of this screen are not shown here. inhibition, % at 25 µM. 330,000 compounds, 0.27% hits. AID 434955;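 active means about 74% or more and at least 40 points above the plate without the antibiotic, then above 30% in a dose series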;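 further: growth measured after seven days incubation then overnight dye step; 0% = bacteria only wells and 100% = bacteria with antibiotic; twin plates without the antibiotic show which effects depend on it; some results filed as inactive read as strong as hits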
YopH PTP inh – blocks Yersinia enterocolitica YopH tyrosine phosphatase | fluorescence Ex485/Em525 | inhibition, %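 (about 10 µM by stock and volumes)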 | 140,000 compounds, 0.16% hits | AID 898;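 active means inhibition of 50% or more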;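 further: controls were vehicle for no effect and minimum signal wells for full effect; inactives centre near -20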
Arbovirus inh – antivirals against arbovirus infection | arbovirus infection cell-based antiviral screen | inhibition, % at 10 µM | 200,000 compounds, 0.37% hits | AID 1251;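 active means inhibition from about 30%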;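 further: bluetongue infection of BSR cells; cell survival read as ATP light after 72 h; 0% = infected wells without compound and 100% = uninfected wells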
Mtb growth – M. tuberculosis H37Rv growth inhibitors, H37Rv strain (AID 1626). inhibition, % at 10 µM; hits with a dose series show IC50 in µM. M. tuberculosis H37Rv growth inhibition; higher % means a stronger effect. 220,000 compounds, 0.95% hits;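 active means confirmed in a dose series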;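 further: bacteria incubated seven days before Alamar blue readout; 0% = bacteria only wells and 100% = bacteria with antibiotic wells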
RecA intein inh – Mtb RecA intein splicing inhibition | cell-free RecA intein splicing, fluorescence | P9WHJ3 | 290,000 compounds, 0.75% hits | inhibition, %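 (about 9 µM by stock and volumes)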 | AID 2221; in the data active means inhibition above about 30%;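 further: 0% = vehicle wells and 100% = reference inhibitor control wells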
Target sequence (P9WHJ3 whole entry, looked up): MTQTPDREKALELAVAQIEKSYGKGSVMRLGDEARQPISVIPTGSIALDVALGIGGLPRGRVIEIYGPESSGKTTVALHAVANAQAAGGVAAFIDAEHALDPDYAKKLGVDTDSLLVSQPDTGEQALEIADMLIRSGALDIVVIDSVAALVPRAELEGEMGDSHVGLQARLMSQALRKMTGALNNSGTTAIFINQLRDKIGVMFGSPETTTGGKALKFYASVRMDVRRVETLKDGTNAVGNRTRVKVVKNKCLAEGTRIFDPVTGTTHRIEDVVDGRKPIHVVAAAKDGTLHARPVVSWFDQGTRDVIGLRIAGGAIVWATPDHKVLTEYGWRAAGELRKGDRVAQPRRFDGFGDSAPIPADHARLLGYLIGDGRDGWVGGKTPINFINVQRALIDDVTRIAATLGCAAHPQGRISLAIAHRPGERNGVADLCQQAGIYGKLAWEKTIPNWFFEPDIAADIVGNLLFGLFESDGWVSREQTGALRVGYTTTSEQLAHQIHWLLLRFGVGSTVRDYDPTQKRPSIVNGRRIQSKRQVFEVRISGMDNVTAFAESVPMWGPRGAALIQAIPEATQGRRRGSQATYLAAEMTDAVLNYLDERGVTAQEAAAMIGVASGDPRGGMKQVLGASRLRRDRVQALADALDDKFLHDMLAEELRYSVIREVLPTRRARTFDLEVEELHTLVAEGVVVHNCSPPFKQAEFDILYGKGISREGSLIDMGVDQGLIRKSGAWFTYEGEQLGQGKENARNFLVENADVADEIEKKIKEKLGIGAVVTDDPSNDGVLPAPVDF
Arbovirus inh repeat – recorded beside Arbovirus inh, whose call it bears; inhibition, %; measured here: 10K subset replicate screen; many hits read low in the repeat;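 first of two repeat runs on a subset; 0% = infected and 100% = uninfected wells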
Starred values were filed as active, the others as inactive; · = not tested or not shown. These rows are one share of the data (hit frequency here may not be typical).

SMILES	Mtb bLac sens	YopH PTP inh	Arbovirus inh	Mtb growth	RecA intein inh	others
CC1Cc2nc(SCC(=O)NCc3ccccc3)n(Cc3ccccc3)c(=O)c2S1 (stereo not drawn)	7	-34	4	-3%	6.4
CCS(=O)(=O)c1ccc(O)c(NC(=O)COc2ccc(Cl)cc2)c1	0	·	12	-11%	-0.4
CCn1c(SCC(=O)NCc2ccco2)nc2ccccc2c1=O	9	·	7	-3%	0.1
COc1ccc(NC(=O)CN(C)C(C)C(=O)N2CCCCC2)cc1 (stereo not drawn)	-8	18	7	-15%	-3.0
CCn1c(SCC(=O)NCc2ccco2)nnc1C(C)C	-10	-46	4	1%	-4.1
COc1cc(NC(=O)c2ccccc2Cl)ccc1NC(=O)c1ccco1	·	-17	-13	-3%	-4.3
COc1ccc(/C=C/C(=O)NCCCn2ccnc2)cc1	4	-14	5	0%	-3.8
CN1C(=O)OC(C)(CCc2ccccc2)C1(C)O (stereo not drawn)	-10	-38	-2	0%	-0.7
O=C(NCc1cccnc1)c1ccc(Cl)cc1[N+](=O)[O-]	-5	-19	1	-14%	-1.2
CCN(c1ccccc1)S(=O)(=O)c1cccc(C(=O)NCc2ccncc2)c1	-3	·	·	·	-1.1
COc1ccc(/C(C)=N/N=C(N)N)c(O)c1	-4	·	·	-9%	-2.9
COc1cccc(NC(=O)c2ccc(S(=O)(=O)NCc3cccnc3)cc2)c1	1	·	·	·	-0.8
Cc1ccc(CS(=O)(=O)CCC(=O)NCCCN2CCCC2)cc1	6	-14	-2	-8%	1.2
Cc1ccc2occ(/C=N/NC(=O)[C@@H](N)Cc3ccccc3)c(=O)c2c1	-3	·	·	-15%	-6.7
CCOC(=O)c1ccc(NC(=O)c2cn(CCC#N)nc2-c2ccc3c(c2)OCCO3)cc1	-1	-24	8	-6%	1.1
CCCCCCn1c(CN2CCN(CCO)CC2)nc2c1c(=O)n(C)c(=O)n2C	7	-21	-5	-5%	0.0	Arbovirus inh repeat=-8
COC(=O)c1cccc(NC(=O)CN2CCC(NC(=O)c3cc(OC)c(OC)c(OC)c3)CC2)c1	58	-28	-8	4%	1.7
O=C(Cn1nc(C(F)(F)F)c2c1CCCC2)NC1CCCC1	-13	-39	11	-1%	0.1
Cc1ccccc1NC(=S)N1CCCCCC1	-1	·	·	·	-1.9
O=C(CSc1ncnc2ccccc12)NCC(=O)c1ccccc1	-3	·	-1	0%	·

The last 6 records of the section above are carried over, then new ones follow.
SMILES	Mtb bLac sens	YopH PTP inh	Arbovirus inh	Mtb growth	RecA intein inh	others
CCOC(=O)c1ccc(NC(=O)c2cn(CCC#N)nc2-c2ccc3c(c2)OCCO3)cc1	-1	-24	8	-6%	1.1
CCCCCCn1c(CN2CCN(CCO)CC2)nc2c1c(=O)n(C)c(=O)n2C	7	-21	-5	-5%	0.0	Arbovirus inh repeat=-8
COC(=O)c1cccc(NC(=O)CN2CCC(NC(=O)c3cc(OC)c(OC)c(OC)c3)CC2)c1	58	-28	-8	4%	1.7
O=C(Cn1nc(C(F)(F)F)c2c1CCCC2)NC1CCCC1	-13	-39	11	-1%	0.1
Cc1ccccc1NC(=S)N1CCCCCC1	-1	·	·	·	-1.9
O=C(CSc1ncnc2ccccc12)NCC(=O)c1ccccc1	-3	·	-1	0%	·
Cc1ccc(NC(=O)c2cccc(NC(=O)CC3SC(N4CCCCC4)=NC3=O)c2)nc1 (stereo not drawn)	-5	·	·	·	-4.9
O=C(NC1CCCCC1)Oc1cc2oc(=O)sc2cc1Br	-1	·	·	-4%	-1.5
C=C1SC(=Nc2ccccc2Cl)N(C(=O)c2sc3ccccc3c2Cl)C12CCCCC2	8	·	·	1%	10
NC(=O)c1ccsc1NC(=O)C1CCCCC1	10	-37	11	6%	1.4	Arbovirus inh repeat=4
CCOc1ccc(NC(=O)CN(C)C(=O)c2ccncc2)cc1OCC	0	·	·	·	-0.8
CCCCn1c(N)c(N(CC(C)C)C(=O)CSc2ccc([N+](=O)[O-])cc2)c(=O)[nH]c1=O	-7	·	·	·	0.5
Cc1ccc(Sc2nc(C)c([N+](=O)[O-])c(C)c2C#N)cc1	0	·	·	13%	23
CCOc1ccc(CCNC(=O)C2CC(=O)N(CCc3ccc(OC)c(OC)c3)C2)cc1OCC (stereo not drawn)	2	·	·	·	4.9
COc1ccc(N2CCOCC2)c(NC(=O)c2ccc(Br)o2)c1	7	·	·	·	2.0
CCc1cc(C(=O)O)c(NC(=O)/C=C/c2ccc(OC)c(OC)c2)s1	81	·	71*	44%	-1.2
N#Cc1cnc(Oc2ccc(Cl)cc2)nc1N	-1	·	·	·	-6.2
Cc1nc2ccc(S(=O)(=O)N(C)CC(=O)Nc3ccccc3F)cc2s1	-4	·	2	-2%	-1.0
C/C(=N\NC(=O)Cc1c(Cl)cccc1Cl)c1cccnc1	-3	·	·	·	1.9
OCC(Cc1ccc2c(c1)OCO2)C(CO)Cc1ccc2c(c1)OCO2 (stereo not drawn)	0	·	·	-9%	0.9
COc1ccc(NC(=O)c2oc3ccccc3c2C)c(OC)c1	11	-9	2	-6%	-0.9	Arbovirus inh repeat=3
CCOc1ccccc1NC(=O)CSc1nnc(Cc2cccn2C)n1-c1ccc(F)cc1	-3	-27	-9	4%	5.1	Arbovirus inh repeat=-5
O=C(Cn1cccc1C(=O)c1ccccc1)NCc1cccs1	-10	-36	-7	-7%	-3.2
CCOC(=O)c1nnn(-c2nonc2N)c1CN(CC)c1ccccc1	-4	-16	-7	6%	-0.3
S=C(NCc1cccnc1)c1ccccc1	-1	·	·	·	0.5
CCOC(=O)C1(CC)NC(c2ccco2)C2C(=O)N(CC)C(=O)C21 (stereo not drawn)	2	-6	8	-6%	0.4
CCc1ccccc1NC(=O)c1ccc2nc(N3CCOCC3)sc2c1	9	·	·	·	1.2
COc1ccc(CC(=O)OCC(=O)Nc2ccc3[nH]c(=O)[nH]c3c2)cc1	2	·	·	·	-2.7
CN(C)CCCN1C(=O)C(=O)/C(=C(/O)c2ccncc2)C1c1cccc(Br)c1 (stereo not drawn)	-2	26	-2	1%	1.5
Brc1cccc(CN2CCCCCC2)c1	-3	·	·	·	-0.9
C=CCN1CC(c2nc3ccccc3n2Cc2ccccc2)CC1=O (stereo not drawn)	-2	-35	11	-2%	·
CCC(C)c1ccccc1N1CC(C(=O)Nc2ccc(S(=O)(=O)N3CCOCC3)cc2)CC1=O (stereo not drawn)	-10	·	·	·	0.3
O=C(NCc1ccc(F)cc1)C1CCN(S(=O)(=O)c2ccc3c(c2)OCCCO3)CC1	3	-29	2	1%	-4.3
CNCCc1ccccn1	-1	-45	15	-4%	-1.5
CCOc1cc(/C=N/NC(=O)CSc2nncn2C)ccc1OC(=O)c1ccc(Cl)cc1	1	-1	8	-4%	0.3
CC(C)c1nccn1S(=O)(=O)c1cccc([N+](=O)[O-])c1	0	-25	1	5%	·
COC(=O)c1sccc1NC(=O)CC1C(=O)NCCN1C(=O)c1c(F)cccc1Cl (stereo not drawn)	-1	·	·	-12%	-0.1
O=C(COc1coc(CN2CCN(c3ccccc3)CC2)cc1=O)NC1CCCCC1	-4	·	·	·	-3.9
COc1ccc(CC(C)Nc2cccc(SC)c2)cc1 (stereo not drawn)	-9	·	·	·	8.1
Cc1cc(C)c2c(c1)cc(C)c1nnc(SCC(=O)Nc3ccc(S(=O)(=O)N4CCCCC4)cc3)n12	9	-30	-8	-2%	-1.5
O=C(Nc1cccc(Cl)c1)Nc1nccs1	2	-38	-1	0%	2.4
O=C(O)c1ccc2ccc3ccccc3c2c1	73	·	·	·	-1.1
COc1ccc(CCNC(=O)C(=O)NCC2OCCN2S(=O)(=O)c2cc(F)ccc2F)cc1 (stereo not drawn)	-5	·	·	·	-5.9
Cc1cccc(-n2nnc(C(=O)NCc3ccccc3)c2N)c1	-6	0	1	1%	-2.0
CCCCOc1ccc(-c2nnn(CC(=O)NCCc3c[nH]c4ccccc34)n2)cc1	6	-44	-10	3%	1.1
O=C(CNS(=O)(=O)c1cccc2nsnc12)NC1CCCCC1	2	-37	6	-5%	0.9	Arbovirus inh repeat=1

Quoted at random: 2 records from the list
SMILES	Mtb bLac sens	YopH PTP inh	Arbovirus inh	Mtb growth	RecA intein inh	others
O=C(Nc1cccc(Cl)c1)Nc1nccs1	2	-38	-1	0%	2.4
COc1ccc(CCNC(=O)C(=O)NCC2OCCN2S(=O)(=O)c2cc(F)ccc2F)cc1 (stereo not drawn)	-5	·	·	·	-5.9

Next results.
SMILES	Mtb bLac sens	YopH PTP inh	Arbovirus inh	Mtb growth	RecA intein inh	others
N#Cc1nc(-c2ccc(F)cc2)oc1N1CCN(C(=O)c2ccco2)CC1	-25	·	·	·	0.4
O=C(NCc1ccc(Cl)cc1)c1ncn[nH]1	2	·	-4	2%	0.9
Cc1cc2c(c(=O)n1CCN(C)C)C(c1ccc(Br)cc1)C(C#N)=C(N)O2 (stereo not drawn)	-2	-11	4	2%	-5.3
O=C(c1ccco1)N1CCN(C(=O)c2cccc3c2C(=O)N(Cc2cccnc2)C3)CC1	7	-4	5	10%	-6.3
O=C(CC1C(=O)NCCN1Cc1ccc(F)c(F)c1)NCCn1cccn1 (stereo not drawn)	0	·	-2	1%	-2.7
C=CCNC(=O)COC(=O)CCC(=O)c1cccs1	-5	·	·	-6%	-0.5
O=C(CCCOc1ccccc1)N1CCCc2ccccc21	4	-22	1	3%	6.0	Arbovirus inh repeat=1
CN1CC2(C(=O)c3ccccc3)CN(C)CC(C(=O)c3ccccc3)(C1)C2	-4	-8	2	-3%	1.2
O=C(COc1ccccc1)NC(NC(=S)Nc1ccccc1C(=O)O)C(Cl)(Cl)Cl (stereo not drawn)	2	-35	13	-5%	-2.6
O=C(Nc1ccc2c(c1)Cc1ccccc1-2)c1ccc(Br)o1	26	-17	10	6%	9.4
Cn1c(CNC(=O)C2CCC(=O)N(CCc3cccc(F)c3)C2)nc2ccccc21 (stereo not drawn)	2	·	·	·	-0.2
Cc1ccc(/C(O)=C2\C(=O)C(=O)N(C)C2c2ccc(Br)cc2)cc1 (stereo not drawn)	-1	·	·	·	-4.0
O=C(Nc1ccc2sccc2c1)c1cccc(N2C(=O)CCC2=O)c1	-3	·	2	-1%	0.3
COC(=O)C(NC(=O)c1ccco1)(Nc1nc(C2CC2)cs1)C(F)(F)F (stereo not drawn)	1	-26	-9	-5%	10
Cc1ccc(NS(=O)(=O)c2ccc3c(c2)NC(=O)CCS3)c(Br)c1	-1	·	·	·	1.9
Nc1ncnc(Nc2cccc(F)c2)n1	-2	·	·	2%	-0.6
O=C(Oc1ccccc1-c1csnn1)c1cccs1	-5	·	5	0%	10.0
Cc1cc(C(=O)Cn2nc(C(=O)O)c3ccccc3c2=O)c(C)n1-c1ccc(F)cc1	6	-27	-17	6%	-0.8
O=C(O)c1ccc(COc2ccc3ccccc3c2/C=C2/NC(=O)N(c3ccccc3)C2=O)cc1	9	-41	7	8%	3.1
O=C(/C(=C/c1ccc(Cl)cc1)c1nc2ccccc2[nH]1)c1ccccc1	7	-52	-37	-9%	0.5

Brought forward from above: six entries; new compounds follow.
SMILES	Mtb bLac sens	YopH PTP inh	Arbovirus inh	Mtb growth	RecA intein inh	others
Cc1ccc(NS(=O)(=O)c2ccc3c(c2)NC(=O)CCS3)c(Br)c1	-1	·	·	·	1.9
Nc1ncnc(Nc2cccc(F)c2)n1	-2	·	·	2%	-0.6
O=C(Oc1ccccc1-c1csnn1)c1cccs1	-5	·	5	0%	10.0
Cc1cc(C(=O)Cn2nc(C(=O)O)c3ccccc3c2=O)c(C)n1-c1ccc(F)cc1	6	-27	-17	6%	-0.8
O=C(O)c1ccc(COc2ccc3ccccc3c2/C=C2/NC(=O)N(c3ccccc3)C2=O)cc1	9	-41	7	8%	3.1
O=C(/C(=C/c1ccc(Cl)cc1)c1nc2ccccc2[nH]1)c1ccccc1	7	-52	-37	-9%	0.5
S=C(NCc1ccccc1Cl)NC1CCCC1	-3	-23	10	10%	1.5
CCc1ccccc1NC(=O)c1cccc(N2C(=O)C3C4CCC(C4)C3C2=O)c1 (stereo not drawn)	-17	-37	8	-5%	-1.9
O=C(COc1ccccc1Cl)Nc1cc(Cl)ccc1Oc1ccccc1	-9	-40	-10	6%	1.2
CCOC(=O)c1cc(C)sc1NC(=O)CSC1=NCCS1	-7	·	·	·	32*
Cc1nc(N=C(N)N)nc2ccccc12	-4	·	-5	3%	2.3
Cc1ccc(CCNS(=O)(=O)c2ccc3c(c2)NC(=O)C(C)C(=O)N3)cc1 (stereo not drawn)	-3	·	·	·	0.5
O=C(CC1C(=O)NCCN1CC1CCCCC1)NCc1cc(F)ccc1F (stereo not drawn)	-9	·	-3	-2%	0.3
N#Cc1c(C(F)(F)F)cc(-c2ccc(Cl)c(Cl)c2)nc1SCCN1CCOCC1	·	-46	3	66%	-2.4
